# Methyltransferases: Primary Screen for Target Class Profiling of Small Molecule Inhibitors of Methyltransferases. purified enzyme, MTase-Glo SAH luminescence; active compounds read low. calls only at 40 µM. hit rate 3.9% among 25,000; active = -50% or lower on at least one of six enzymes; inconclusive = the cases between; inactive = as a rule above -30% on all six;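 note: enzymes were COMT GAMT GNMT HNMT NNMT and PNMT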
#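 Each enzyme was reacted with SAM and its substrate, with compounds tested once at 40 uM; SAH formed was read by MTase-Glo luminescence.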
# Calls only; i = inactive; ? = inconclusive; + = active, no number. % is set by controls: 0 for no effect and ±100 for the full control effect. A portion of the library. The share of hits here may be higher or lower than overall.
SMILES,Methyltransferases
COc1ccc(NC(=O)Cn2nc3n(Cc4ccc(C)cc4)c(=O)c4ccccc4n3c2=O)cc1OC,i
CN(CCN1C(=O)c2cc3occc3n2CC1(C)C(=O)NC1CCCCCCC1)C1CCCCC1 (stereo not drawn),i
COC(=O)CNC(=O)c1cc(-c2cnccc2Cl)c2cccn2n1,i
Cc1occc1C(=O)n1ccnc1,i
CCOCCCNC(=O)c1ccc2c(=O)nc3c(-c4cccc(F)c4)n[nH]n3c2c1,i
CC(C)C1(O)C=C2C(=O)CC3C(C)(C(=O)O)CCCC3(C)C2CC1 (stereo not drawn),i
CC1(C)C(=O)N(CCOc2ccccc2)[C@H]2CN(CC3CCOC3)C[C@H]2[S+]1(=O)[O-] (stereo partly drawn),i
CC(=O)NC1CCN(Cc2cn(-c3ccc(C)cc3)nc2-c2cccc(C)c2)C1 (stereo not drawn),i
COc1ccc(N2C(=O)c3cc(-c4cccs4)nn3CC2(C)C(=O)NC2CCCCCC2)cc1 (stereo not drawn),i
CC(C)C1=CCC(C)(O)C(OC2OC(CO)C(O)C(O)C2O)C1 (stereo not drawn),?
CNC(=O)c1cccc(-c2ccccc2COc2ccc(CCOC)cc2)n1,i
COCCC1(NC(=O)C2CC2)CCN(C(=O)C2CC2)CC1,i
CC(=O)Nc1c2n(c3ccccc13)CC(C)(C(=O)NC1CCCC1)N(Cc1ccco1)C2=O (stereo not drawn),i
CC1(C(=O)NCc2ccc(F)cc2)Cn2cnc(C(=O)NCCc3cccs3)c2C(=O)N1C1CC1 (stereo not drawn),i
CC(C)Cn1c(=O)c2ccc(C(=O)NC3CCCC3)cc2n2c(=O)n(CC(=O)N(C)c3ccccc3)nc12,i
Cc1cccc(CN2C(=O)c3ccccc3CC2(C)C(=O)NCc2ccccc2C)c1 (stereo not drawn),i
COc1ccccc1NC(=O)Cn1nc2n(Cc3ccc(F)cc3)c(=O)c3ccccc3n2c1=O,i
Cc1c(Cl)cccc1N1C(=O)c2cc3occc3n2CC1(C)C(=O)NC1CCCC(C)C1C (stereo not drawn),i
Cn1c(=O)c2ccc(C(=O)NC3CCCCC3)cc2n2c(SCC(=O)c3ccccc3)nnc12,i
Cc1cn2nnc(C(=O)NC3CCC(C)CC3)c2c(=O)[nH]1 (stereo not drawn),i
COc1ccc(-n2cccn2)c(CN2CC[C@H](CO)[C@H](O)C2)c1,i
O=c1cc(N2CCOCC2)oc2c(NCc3ccc(F)cc3)nccc12,i
CC(=O)O[C@@H]1[C@H]2[C@@H](OC(=O)c3ccccc3)[C@@H](C)C[C@]2(O)[C@H](OC(C)=O)[C@@]2(C)[C@@H]3CC(C)(C)C(=O)[C@]3(OC(C)=O)C[C@@]12C,i
CC(C)CCNC(=O)CCc1nnc2n(Cc3ccccc3Cl)c(=O)c3ccccc3n12,i
CCOc1ccc(N2C(=O)c3cc4ccccc4n3CC2(C)C(=O)NCCC(C)C)cc1 (stereo not drawn),i
CC[C@H]1CN(C(C)=O)CC[C@H]1CC(=O)NCCOC,i
CN(C)c1ccc(C2O[C@@H](c3ccccc3)C[C@H](c3ccccc3)O2)cc1 (stereo partly drawn),i
COCc1ncc(C)n1C1CCCN(C(=O)CCCc2ccccc2)C1 (stereo not drawn),i
Cc1ccc(C)c(NC(=O)N2C[C@H](c3nc(-c4cccnc4)no3)[C@@H](C)C2)c1,?
N#Cc1ccc(CN2CCC3(CNc4ccccc4[S+](=O)([O-])N3)C2)cc1 (stereo not drawn),i
COC(=O)[C@H]1[C@H]2C[C@@H]3c4[nH]c5cc(OC)ccc5c4CCN3C[C@H]2C[C@@H](OC(=O)/C=C/c2cc(OC)c(OC)c(OC)c2)[C@@H]1OC,i
COc1ccc(N2C(=O)c3ccc(-c4ccco4)n3CC2(C)C(=O)NC2CCCC2)cc1 (stereo not drawn),i
Cc1csc2c(NCCC3CN(c4cnn(C)c(=O)c4)CCO3)ncnc12 (stereo not drawn),?
CCOC(=O)c1cc2n(n1)CC(C)(C(=O)NC1CCCC1)N(c1ccc(Cl)cc1C)C2=O (stereo not drawn),i
COC1CCN(CC2CCCCCN2C(=O)c2cc(F)ccc2F)CC1 (stereo not drawn),i
C=C1CC[C@@H]2[C@](C)(CC[C@H](O)[C@@]2(C)CCC=C(C)C)[C@@H]1Cc1c[nH]c2ccccc12,i
C[C@@H]1O[C@@H](O[C@H]2[C@@H](OC(=O)[C@]34CCC(C)(C)CC3C3=CCC5[C@@]6(C)C[C@H](O)[C@H](O[C@@H]7O[C@H](CO)[C@@H](O)[C@H](O)[C@H]7O[C@@H]7OC[C@@H](O)[C@H](O)[C@H]7O)[C@@](C)(C(=O)O)C6CC[C@@]5(C)[C@]3(C)CC4)OC[C@H](O)[C@@H]2O)[C@H](O)[C@H](O)[C@H]1O[C@@H]1OC[C@@H](O)[C@H](O)[C@H]1O (stereo partly drawn),i
O=C(Nc1ccc(F)cc1)N[C@H]1[C@H](O)[C@@H](N2CCOCC2)[C@@H]2OC[C@H]1O2,i
Cc1cccc(N2C(=O)c3cc4occc4n3CC2(C)C(=O)NC2CCCCCCC2)c1C (stereo not drawn),i
O=C(CSc1nnc2n(CCc3ccccc3)c(=O)c3ccccc3n12)NCc1ccccc1,i
O=C(CCn1ccc2cc(S(=O)(=O)N3CCCC3)ccc21)NC1CCN(Cc2ccccc2)CC1,i
CC[C@H]1CN(c2nc(N)c(C(N)=O)nc2Cl)CCN1C1CCN(Cc2ccc(Cl)cc2)CC1,+
COc1ccc(CN2CCOc3nc(-c4cccc(C(F)(F)F)c4)ncc3C2=O)cc1,i
CCOC(=O)c1cc2n(n1)CC(C)(C(=O)NCc1ccc(F)cc1)N(c1ccc(C)cc1C)C2=O (stereo not drawn),i
COc1ccc(NC(=O)Cn2nc3n(CCc4ccccc4)c(=O)c4ccccc4n3c2=O)cc1,i
CN1C[C@H]2CN(C(=O)c3cccnc3)CCN2C1=O,i
COc1ccc(OC)c(S(=O)(=O)N2CCC(n3c(C)cnc3C3CC3)CC2)c1,i
CC(=O)O[C@@H](C[C@@H]1C=C(C)C(=O)O1)[C@H](C)[C@H]1CCC2[C@@]3(C)CC[C@H](O[C@@H]4O[C@H](CO)[C@@H](O)[C@H](O)[C@H]4O[C@@H]4O[C@@H](C)[C@H](O)[C@@H](O)[C@H]4O)C(C)(C)C3CC[C@@]2(C)[C@@]12COC(=O)C2 (stereo partly drawn),i
S=C(Nc1ccccc1)Nc1nccs1,i
CCc1cn(C[C@H](NC(=O)C2CCCC2)C(=O)O)c(=O)[nH]c1=O,i
CCOC(=O)c1cc2n(n1)CC(C)(C(=O)NC1CCCC1)N(c1ccc(OCC)cc1)C2=O (stereo not drawn),i
CC(C)OCCCNC(=O)CCCc1nnc2n3nc(-c4ccccc4)nc3c3ccccc3n12,i
Cc1ccc(CN2C(=O)c3cc(-c4ccco4)nn3CC2(C)C(=O)NC2CCCCC2)cc1 (stereo not drawn),i
COc1ccc(S(=O)(=O)N2CCC3(CC2)CC(OC)CCO3)cc1 (stereo not drawn),i
O=C(c1ccc2c(c1)OCCO2)N1CCCCC1,i
CCOC(=O)CNC(=O)N1Cc2c(sc3c2CCCC3)-n2cccc2C1c1cccc(OC)c1 (stereo not drawn),i
N#Cc1ccc(C(=O)Nc2ccc(=O)n3c2[C@@H]2C[C@@H](CN(C(=O)c4ccc(F)cc4)C2)C3)cc1,i
CC(C)CN(Cc1cccnc1)C1CN(C(=O)CCc2nc3ccccc3s2)C1,i
CCCn1c(=O)c2cc(F)ccc2n2c(SCC(=O)Nc3ccc(OC)c(OC)c3)nnc12,i
Cc1nn2c(c1-c1ccccc1OCc1ccccc1)N(C(=O)Cc1ccccc1)CCC2,i
# (more compounds)
SMILES,Methyltransferases
CCN(CC)C(=O)C[C@@H]1c2nc(NC(=O)N3CCOCC3)sc2C[C@@H]2[C@](C)(CO)[C@H](O)CC[C@]21C,i
COC(=O)C12CCC(C)C(C)C1C1=CCC3C4(C)CCC(OC(C)=O)C(C)(C)C4CCC3(C)C1(C)CC2 (stereo not drawn),i
Cc1ccccc1NC(=O)Cn1nc2n(C(C)C)c(=O)c3ccc(C(=O)NC4CCCC4)cc3n2c1=O,i
C=CCn1c(=O)c2ccc(C(=O)NC(C)CC)cc2n2c(=O)n(CC(=O)NC(C)CC)nc12 (stereo not drawn),i
Cc1ccc(Cn2c(=O)c3ccccc3n3c(CCC(=O)NCCC4=CCCCC4)nnc23)cc1,i
Clc1ccc2ncc(-c3cccc(NC4CCNC4)n3)n2c1 (stereo not drawn),?
CCOc1ccc(N(C(=O)c2cccnc2)S(=O)(=O)c2ccc3c(c2)n(C)c(=O)n3C)cc1,i
CCN1C(=O)c2cc(C(=O)N3CCN(c4cccc(OC)c4)CC3)nn2CC1(C)C(=O)NC1CCCC1 (stereo not drawn),i
O=C(C[C@@H]1C[C@H]2O[C@H](CNC3CCOCC3)[C@@H](O)[C@H]2O1)N1CCC(F)(F)C1,i
O=C(NCC1CCOCC1)Nc1c(F)cccc1F,i
CC1(C(=O)NC2CCCCCC2)Cn2c(ccc2-c2ccccc2)C(=O)N1Cc1ccccc1F (stereo not drawn),i
CC(C)COC(=O)OCN1C(=O)CN(CCN2CC(=O)N(COC(=O)OCC(C)C)C(=O)C2)CC1=O,i
O=C(NCc1ccc2c(c1)OCO2)c1csc(N2CCN(c3ccc(F)cc3)CC2)n1,i
CC1(C(=O)NC2CCCCCC2)Cn2c(cc3occc32)C(=O)N1Cc1cccc(F)c1 (stereo not drawn),i
Cc1ccccc1CNC(=O)C1(C)Cc2ccccc2C(=O)N1Cc1cccc(F)c1 (stereo not drawn),i
Cc1cccc(NC(=O)Cn2nc3n(CC(C)C)c(=O)c4ccc(C(=O)NC(C)C)cc4n3c2=O)c1,i
CC(=O)c1[nH]cc(CCC(=O)O)c1CC(=O)O,i
O=C(NC1CCCC1)c1ccc2c(=O)n(Cc3ccccc3)c3nn(Cc4cccc(F)c4)c(=O)n3c2c1,i
CCc1cccc(NS(=O)(=O)c2cc3[nH]c(=O)[nH]c3cc2C)c1,i
COCc1ncc(C)n1C1CCN(C(=O)Cc2cccc(F)c2)CC1,i
COCCN1C(=O)c2cc3sccc3n2CC1(C)C(=O)NC1CCCCC1C (stereo not drawn),i
O=C(c1cc2n(n1)CC(c1ccc(Cl)cc1)OC2)N1CCCCC1 (stereo not drawn),i
CCCn1c(=O)c2ccc(C(=O)NC3CCCC3)cc2n2c(=O)n(CC(=O)Nc3ccc(C)c(C)c3)nc12,i
Cc1ccc(S(=O)(=O)Nc2ccccc2N2CCCCC2)s1,i
C[C@@H]1CN(C[C@@H]2CN(C(=O)c3ccc(Cl)o3)C[C@@H]2CO)C[C@H](C)O1,i
CC1CCC(NC(=O)CCc2nnc3n(Cc4ccc(F)cc4)c(=O)c4ccccc4n23)CC1 (stereo not drawn),i
COc1ccccc1NC(=O)CSc1nnc2n(CC(C)C)c(=O)c3cc(F)ccc3n12,i
COCCOCc1nc(C2CCCN2C(=O)c2ccccn2)no1 (stereo not drawn),i
C=CCCCC(=O)Nc1ccc(NC(=O)C(C)(C)C)c(OC)c1,i
CC(=O)O[C@H]1CC(C)(C)CC2[C@]13CO[C@@]21CCC2[C@@]4(C)CC[C@H](O[C@@H]5OC[C@H](O[C@@H]6O[C@H](CO)[C@@H](O)[C@H](O)[C@H]6O[C@@H]6OC[C@@H](O[C@@H]7O[C@H](CO)[C@@H](O)[C@H](O)[C@H]7O)[C@H](O)[C@H]6O)[C@H](O)[C@H]5O[C@@H]5O[C@H](CO)[C@@H](O)[C@H](O)[C@H]5O)[C@@](C)(CO)C4CC[C@@]2(C)[C@]1(C)C[C@H]3O (stereo partly drawn),?
Cc1ccc2n1CCN(C(=O)Nc1ccc(F)cc1)C2C(C)C (stereo not drawn),i
COc1ccccc1CN1CCC(N2CC3CCCN3C2=O)CC1 (stereo not drawn),i
COc1ccc2cc3n(c2c1)CC(C)(C(=O)NC1CCCCC1)N(Cc1ccc(F)cc1)C3=O (stereo not drawn),i
O=C(NCc1cccc(F)c1)c1nc2c(o1)CCN(CC1CCCC1)CC2,+
O=C(Nc1ccc(Cl)cc1)c1nc2c(o1)CCN(Cc1ccncc1)CC2,i
CCc1ccc(CN2CCCC23Cc2ccccc2CNC3=O)s1 (stereo not drawn),i
